2A Renilla = FMDV 2A StopGo reporter, Renilla signal | Potency, µM (titrated, usually from 57.5 µM), inactives show top-dose signal change, negative = less light | actives 0.32% (n = 120,000) | HEK cells with a luciferase reporter of 2A StopGo recoding; active means well fitted falling curve with a large enough effect; inconclusive means small, poorly fitted or top-dose-only effect; inactive means no such curve, though single readings can be large or run the other way; note: nearly all actives have a fitted effect of over 55% in size; overnight with compound
2A firefly = lowers the firefly signal of an FMDV 2A StopGo reporter; actives 0.23% (n = 120,000); AID 1745856; HEK cells with a luciferase reporter of 2A StopGo recoding; Potency, µM (doses to about 57.5 µM), inactives show at the top dose signal change, negative = less light; active = well fitted falling curve with a large enough effect; inconclusive = small, poorly fitted or top-dose-only effect; inactive = no such curve, though single readings can be large or run the other way; note: nearly all actives have a fitted effect of over 60% in size; overnight with compound
* marks the source's active call; other numbers are inactive results; u = inconclusive; & = joins results of further samples; [ ] = another dose, or the depositor's remark. % is set by controls: 0 for no effect and ±100 for the full control effect; potency is the fitted concentration of half-maximal effect. Random draw from the library; 0.55% or so of the library scored in one or more.

Second line of a record – 2A Renilla	2A firefly
> CCOC(=O)[C@H](CCc1ccccc1)N[C@@H](C)C(=O)N1Cc2cc(OC)c(OC)cc2C[C@H]1C(=O)O
  18%	8%
> Cc1cccc(C(=O)Nc2cccc(C(=O)OCc3cc(=O)n4ccsc4n3)c2)c1
  -8%	13%
> Cc1cc(C(=O)OCC(=O)c2cc(C)n(CC(N)=O)c2C)c2ccccc2n1
  -3%	27%
> COC(=O)CCNC(=O)N1CCc2[nH]cnc2C1c1cc(Cl)ccc1F (stereo not drawn)
  -6%	-7%
> Cc1ccc(-c2nnc(SCC(=O)NCCC(C)C)nc2-c2ccc(C)cc2)cc1
  -10%	-14%
> Cn1cnc2c(oc3nc(C4CCCCC4)c4c(c32)CCC4)c1=O
  -4%	2%
> Nc1nc2ccccc2[n+]([O-])n1
  14%	24%
> CC1CN(C(=O)N2CCC(C(=O)NC3CCCCCC3)CC2)c2cc(Cl)ccc2O1 (stereo not drawn)
  3%	37%[activator]
> CCOC(=O)c1c(NC(=O)CN2CCCCC2)sc2c1CC(C)(C)OC2
  -6%	-5%
> COc1ccc(-c2cn3cccnc3n2)cc1NC(=O)c1c(F)cccc1F
  47%[activator]	16%
> CN1C(=O)Cc2cc(S(=O)(=O)CCC(=O)Nc3ccc(Cl)cc3)ccc21
  -9%	7%
> Cc1nn(CC(C)C)c2sc(C(=O)Nc3ccc(S(=O)(=O)N4CCOCC4)cc3)cc12
  10%	-5%
> Cc1ccccc1COC(=O)c1ccc(-c2nnn(Cc3ccccc3F)n2)cc1
  -1%	3%
> O=C(OOC(=O)c1ccccc1)c1ccccc1
  4%	-6%
> O=C(c1ccc(F)c(C(F)(F)F)c1)N1CC2CCC1C2 (stereo not drawn)
  -3%	-3%
> CCCc1ccc(NC(=O)C2CCN(c3cnccn3)CC2)cc1
  3%	3%
> CCOC(=O)c1cc(-c2ccccc2)n(-c2cccc(C(=O)NC(C)CC)c2)c1C (stereo not drawn)
  -3%	-14%
> Cc1cc(Nc2ccccc2)nc(N2CCN(C(=O)Nc3cccc(Cl)c3)CC2)n1
  -23%	-17%
> CC(C)C(C)NC(=O)CSc1ncnc2ccccc12 (stereo not drawn)
  -13%	9%
> Cc1ccc2c(c1)c1c(c(=O)n(-c3ccccc3)c(=O)n1CC(=O)NCC1CCCO1)n2C (stereo not drawn)
  -5%	-14%
> O=C(Nc1ccc(S(=O)(=O)N2CCCC2)cc1)C1CCCN(C(=O)c2ccc(Cl)cc2)C1 (stereo not drawn)
  -20%	u
> COc1cc(C(=O)OCC(=O)NC(N)=O)cc(OC)c1OC
  2%	2%
> Cc1ccc(NC(=O)C(=O)NCC2(c3ccccc3)CCCC2)cc1Cl
  -14%	-14%
> CCn1nc(C(=O)NCc2ccco2)c2ccccc2c1=O
  5%	3%
> CN(C)CCN(Cc1ccco1)C(=O)c1cc2c(s1)-c1ccccc1OC2
  -13%	36%
> O=C(NC1CCCCC1)c1ccc2c(c1)N(Cc1ccccc1)C(=O)c1ccccc1S2
  -14%	-17%
> CCOc1ccccc1C(=O)n1c(=O)oc2ccc(C(C)(C)C)cc21
  3%	0%
> O=C(NCc1ccccc1)c1ccc(NC(=O)N2CCSc3ncccc32)cc1
  -19%	2%
> CCC(C)NC(=O)C1=CC(c2ccc3c(c2)OCO3)=NS(=O)(=O)N1C (stereo not drawn)
  9%&-9%	3%&-13%
> N#Cc1ccccc1S(=O)(=O)N1CCC(C(=O)NCCc2cccs2)CC1
  29%	11%
> CCN(CC)C(=O)c1ccc(NC(=O)c2cc(-c3ccco3)nc3ccccc23)cc1
  50%[activator]	27%
> Cn1nc(C(=O)N(Cc2ccccc2F)C2CC2)c2ccccc2c1=O
  193%[activator]	-7%
> Oc1c(C(c2ccc(Cl)cc2Cl)N2CCOCC2)sc2nc(-c3ccco3)nn12 (stereo not drawn)
  5%	-13%
> CCCC(=O)NCC(c1ccc2c(c1)OCO2)N1CCOCC1 (stereo not drawn)
  -2%	-16%
> O=C(CCc1ncc(-c2ccccc2)o1)NCc1ccccc1Cl
  4%	8%
> Nc1cc(=O)nc(SCC(=O)Nc2ccc(F)cc2)n1-c1ccc(Cl)cc1
  -8%	10%
> CCc1cccc(C)c1NC(=O)COCc1cc(-c2ccc3c(c2)OCO3)on1
  u	u
> CCN1CCC(N(Cc2ccc3c(c2)OCO3)C(=O)Nc2ccccc2OC)CC1
  -8%	-15%
> Cc1c(Cl)cccc1NC(=O)c1ccc(NC(=O)C2=CSCCO2)cc1
  -29%	49%[activator]
> CCCSc1ncc(Cl)c(C(=O)Nc2sc3c(c2C(N)=O)CCCC3)n1
  -8%	18%
> COc1ccc(/C=C\c2onc(C)c2S(=O)(=O)N2CCC(C(=O)Nc3ccccc3OC)CC2)cc1
  -9%	-19%
> COc1ccc(C)cc1NC(=O)c1c(C(=O)Nc2cccc(C)c2C)sc2nc(C)cc(=O)n12
  -4%	-14%
> Nc1nc(CN2CCN(C(=O)c3ccc(F)cc3F)CC2)nc2ccccc12
  -10%	0%
> C=Cc1ccc(CSc2nc(-c3ccc(C)cc3)nc3c2Cc2c(CO)cnc(C)c2O3)cc1
  -13%	-22%
> CCS(=O)(=O)N1CCC(C(=O)Nc2ccc(OC)c(OC)c2)CC1
  -1%	7%
> CCCOc1ccc(C(=O)Nc2ccc(NC(=O)c3ccc(Br)cc3)cc2)cc1
  -8%	7%
> Cc1ccc(S(=O)(=O)N2CCN(C(=O)NCC3CN(CC(C)C)CCO3)CC2)cc1 (stereo not drawn)
  0%	-4%
> Cc1ccc(F)cc1S(=O)(=O)N(Cc1cc(CN2CCOCC2)cs1)c1ccc(F)cc1
  10%	8%
> Cc1ccc2cc(C(=O)NCC3CCN(C(C)C)C3)[nH]c2c1 (stereo not drawn)
  -9%	18%
> Cc1cc(C)cc(-n2c(SCC(=O)NC3CCCCC3)nc3c([nH]c4ccccc43)c2=O)c1
  -2%	-14%
> COc1cc(C2C(C(=O)Nc3ccccc3)=C(C)Nc3nc(SCc4ccccc4F)nn32)cc(OC)c1OC (stereo not drawn)
  -23%	-24%
> CCCN(CCC)C(=O)CSc1nc2sc3c(c2c(=O)n1-c1ccccc1)CCN(C(C)=O)C3
  30%[activator]	4%
> COc1cc(OC)c2c(C)c(CC(=O)NCCc3ccccc3F)c(=O)oc2c1
  0%	2%
> O=C(Nc1cc(F)ccc1F)c1cnc(N2CCCCC2)c2ccccc12
  -2%	-5%
> Cc1cc(C)cc(-n2nnc(-c3nsc(NC(=O)c4ccccc4Cl)n3)c2C)c1
  3%	11%
> Cc1c(Cl)cccc1NC(=O)C(=O)NCC(c1cccnc1)N1CCN(c2ccccc2)CC1 (stereo not drawn)
  22%	18%
> CN1CCN(C(CNC(=O)c2ccc(F)cc2)c2ccc3c(c2)OCO3)CC1 (stereo not drawn)
  28%	38%[activator]
> COc1ccc(OCCN(C)C(=O)c2nn(C)c(=O)c3ccccc23)cc1
  u	u
> O=C(Nc1ccc2c(c1)CCC2)c1ccc(Br)cc1
  6%	141%[activator]
> Cc1noc(/C=C/c2cccs2)c1S(=O)(=O)N1CCC(C(=O)NCc2ccccc2Cl)CC1
  -8%	-19%

Going on with the list.
Second line of a record – 2A Renilla	2A firefly
> CCOC(=O)CC(NC(=O)CCc1c(C)nc2c(c1C)c(=O)n(C)c(=O)n2C)c1ccc(OCC)c(OC)c1 (stereo not drawn)
  -15%	-39%
> Cc1ccc(-n2c(=O)c3c(c4cc(C)ccc4n3C)n(CC(=O)c3ccc(Cl)cc3)c2=O)cc1
  -15%	-25%
> Cc1cc(C)nc(Nc2nc3ccccc3c(=O)[nH]2)n1
  -1%	108%[activator]
> N#Cc1ccc(COC(=O)CCC(=O)c2ccccc2)cc1
  11%	3%
> COc1ccc(-c2c(C)oc3cc(OCCN4CCC(C(N)=O)CC4)ccc3c2=O)cc1
  -10%	-1%
> CCN1CCN(CC(=O)N2CCNC(=O)C2CC(=O)Nc2ccc(F)cc2)CC1 (stereo not drawn)
  -6%	u
> CCN(c1ccccc1)c1nnc(NC(=O)Nc2ccccc2)s1
  -10%	5%
> CCCCNC(=O)c1ccc2c(Cl)c3c(nc2c1)CCCC3
  10%	168%[activator]
> Cc1cc(C)cc(C(=O)Nc2cccc(-c3nc4ncccc4o3)c2C)c1
  2%	14%
> CCC(CC)c1nnc(NC(=O)c2nn(Cc3ccccc3)c(=O)c3ccccc23)s1
  -4%	1%
> CC1CCN(S(=O)(=O)c2cc(C(=O)NCc3ccc(N(C)C)cc3)n(C)c2)CC1
  56%[activator]	15%
> Cc1ccc(NC(=O)C2CCC(CNS(=O)(=O)c3ccc4c(c3)CCCC(=O)N4)CC2)cc1F (stereo not drawn)
  -8%	-3%
> COc1ccc(-c2nc(CSC(C)C(=O)Nc3ccccc3)co2)cc1 (stereo not drawn)
  -19%	16%
> COc1ccc(NC(=O)c2cc(=O)c3cc(Cl)ccc3o2)cc1Cl
  -5%	1%
> COc1ccc(C)cc1NC(=O)C(=O)NCCc1csc2nc(-c3ccccc3C)nn12
  -14%	-1%
> COc1cc(Cl)c(/C=C(/C#N)c2ccc(Cl)cc2)cc1OC
  17%	23%
> CCCn1nc(C(=O)OCc2cccc(Cl)c2)c2ccccc2c1=O
  9%	0%
> Cc1ccc(C(=O)c2sc(Nc3cccc(Cl)c3C)nc2N)cc1
  16%	0%
> CC(C)c1ccc(CCNC(=O)/C=C/c2cccs2)cc1
  10%	0%
> Cc1nc(N2CCCCC2)cc(N2CCN(C(=O)c3ccccc3C(F)(F)F)CC2)n1
  13%	-5%

Some of the entries so far, with each value named:
CCCCNC(=O)c1ccc2c(Cl)c3c(nc2c1)CCCC3
  2A Renilla = 10%
  2A firefly = 168%[activator]
Cc1cc(C)cc(C(=O)Nc2cccc(-c3nc4ncccc4o3)c2C)c1
  2A Renilla = 2%
  2A firefly = 14%

Nothing new here: entries from further up.
Second line of a record – 2A Renilla	2A firefly
> COc1cc(Cl)c(/C=C(/C#N)c2ccc(Cl)cc2)cc1OC
  17%	23%
> CCCn1nc(C(=O)OCc2cccc(Cl)c2)c2ccccc2c1=O
  9%	0%
> Cc1ccc(C(=O)c2sc(Nc3cccc(Cl)c3C)nc2N)cc1
  16%	0%
> CC(C)c1ccc(CCNC(=O)/C=C/c2cccs2)cc1
  10%	0%

The results go on:
Second line of a record – 2A Renilla	2A firefly
> COc1ccccc1CNC(=O)Cn1c(-c2ccc(F)cc2)cc(C(C)=O)c1C
  -19%	-18%
> Nc1nc2c(s1)C(c1c(Cl)cccc1Cl)CC(=O)N2 (stereo not drawn)
  -12%	-1%
> Cc1ccc(N2C(=O)C(CC(=O)Nc3ccc(F)cc3)N(CCC3=CCCCC3)C2=O)cc1 (stereo not drawn)
  166%[activator]	-2%
> COc1ccccc1CNC(=O)CCc1c(C)nc2cc(-c3ccccc3OC)nn2c1C
  -1%	-1%
> COc1cc(C2c3c(-c4ccccc4)n[nH]c(=O)c3Nc3nnnn32)ccc1O (stereo not drawn)
  1%	5%
> CCOc1ccc(C2c3[nH]c4ccccc4c3CCN2C(=O)CSCc2ccc(F)cc2)cc1 (stereo not drawn)
  17%	-8%
> CCOc1ccccc1-n1cnc2cc(C(=O)NCC(OCC)OCC)ccc21
  12%	-3%
> COc1ccc(Cl)cc1NC(=O)c1cnc(Nc2ccccc2OC)c2ccccc12
  31%[activator]	25%
> C/C(=C\C=C\c1ccco1)C(=O)c1ccc(Br)cc1
  -8%	-8%
> FC(F)C(F)(F)c1cc(-c2ccccc2)n[nH]1
  -24%	49%[activator]
> CCOC(=O)Cn1c(=O)cc(-c2ccccc2)c2c(C)nn(C)c21
  8%	29%
> COc1ccc(S(=O)(=O)N(C)Cc2nc(-c3cccc(C)c3)no2)cc1
  22%	-12%
> Cc1ccc(-c2nnc(SCC(=O)NCc3ccccc3)n2N)cc1
  -5%	6%
> CN(C)CCN(Cc1ccccc1F)C(=O)c1ccc(S(C)(=O)=O)cc1
  -13%	-11%
> Clc1ccccc1CN1CCN(c2ncnc3nc[nH]c23)CC1
  -11%	-3%
> CCOc1ccc(NC(=O)Cn2c(=O)cc(C)c3c(C)nn(-c4cccc(Cl)c4C)c32)cc1
  -2%	-9%
> CCc1ccccc1NC(=O)C1CCCN(S(=O)(=O)c2ccc3[nH]c(=O)ccc3c2)C1 (stereo not drawn)
  -8%	-4%
> COc1ccc(-c2nc3ccccc3c(C)c2C#N)cc1
  13%	23%
> Cc1cccc(-n2c3nc(=O)[nH]c(=O)c-3cc3ccccc32)c1C
  12%	19%
> COc1ccccc1CNC(=O)C1CCCN(c2nnc(C)c3c(C)n(-c4ccccc4)nc23)C1 (stereo not drawn)
  0%	13%
> CCOC(=O)c1c(C)oc2nc(C)nc(N(C)Cc3ccccc3)c12
  -4%	19%
> CC(C)C[C@H](NC(=O)[C@H](Cc1ccccc1)NC(=O)c1cnccn1)B(O)O
  -89%	-77%[11.5 µM]
> CCOc1ccc(C(=O)Nc2cccc3ncccc23)cc1
  -2%	47%[activator]
> COc1cccc(C(=O)N2c3ncnn3C3(CCCCC3)[C@@H]3CCCC[C@@H]32)c1
  -10%	-14%
> COC(=O)CC(NC(=O)CNC(=O)c1ccc(N2CCCC2=O)cc1)c1ccc(Cl)cc1 (stereo not drawn)
  4%	5%

Screening results deposited in PubChem by National Center for Advancing Translational Sciences (NCATS).
